TRPML1 inh: inhibitors of human TRPML1 channel. TRPML1-inducible cells, Ca2+ dye fluorescence, FDSS; hits give low values; inhibition of EC80 agonist-evoked calcium signal. AID 624415. hit rate 0.02% among 390,000. activity change, negative = inhibition, % (concentration not given with the values); in the data active means activity change below about -50%; inconclusive means about -30% to -50%; inactive means above about -30%;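 note: stimulus is agonist 54-4 at its EC80 concentration; % is set by controls: 0 for no effect and ±100 for the full control effect; compound concentration not given in the record; the text of the record puts the active cut at -80%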
Target sequence (Q9GZU1 whole entry, looked up): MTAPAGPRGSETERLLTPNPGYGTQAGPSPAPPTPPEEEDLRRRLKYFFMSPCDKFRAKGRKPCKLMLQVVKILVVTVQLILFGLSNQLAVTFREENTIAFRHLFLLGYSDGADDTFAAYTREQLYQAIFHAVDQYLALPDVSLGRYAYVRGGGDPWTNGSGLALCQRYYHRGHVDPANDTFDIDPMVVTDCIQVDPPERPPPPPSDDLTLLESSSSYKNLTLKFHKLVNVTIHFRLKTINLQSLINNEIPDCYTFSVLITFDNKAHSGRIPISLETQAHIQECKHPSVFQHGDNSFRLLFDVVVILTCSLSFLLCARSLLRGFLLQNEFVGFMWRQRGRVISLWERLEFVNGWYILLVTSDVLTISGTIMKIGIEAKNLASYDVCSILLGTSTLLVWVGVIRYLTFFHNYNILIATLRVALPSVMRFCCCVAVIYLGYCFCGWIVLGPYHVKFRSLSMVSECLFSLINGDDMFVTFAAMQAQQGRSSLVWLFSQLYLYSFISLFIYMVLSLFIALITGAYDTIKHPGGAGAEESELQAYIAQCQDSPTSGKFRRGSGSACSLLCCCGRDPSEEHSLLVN
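TRPML1-DL cells, Tet-induced overnight (~16 h, 37 °C) at 1,500 cells/well, were loaded with Ca8 no-wash dye plus quencher for 45-90 min at room temperature. Compounds were pinned during FDSS kinetic reading; agonist 54-4 at EC80 (4 uM final) then added.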
TRPV1 PAM: human TRPV1 potentiation | TRPV1-expressing cells, Fluo-8 calcium influx, capsaicin EC20 potentiation; host cell line not named in the record; control for the full effect not named in the record | hit rate 0.02% among 320,000 | potentiation, % at 8.33 µM; active means potentiation above 80%; inconclusive means 30% to 80%; inactive means below 30%; note: 0% is about no effect
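Fluo-8 calcium influx in TRPV1-expressing cells, kinetic read (ex 480/em 520 nm). Compound added and read 3 min for agonist activity, followed by capsaicin at EC20 final and 2 min further read for enhancement.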
Sfp inh: blocks B. subtilis Sfp PPTase activity; Potency, µM, without a hit: max response, negative = inhibition, hits mostly inhibitors; Q9F4F7; Biochemical Sfp PPTase activity, qHTS; hit rate 3.5% among 310,000; active = well fitted inhibition curve with a large enough effect; inconclusive = small, poorly fitted or top-dose-only effect, or another doubt; inactive = no such curve, though single readings can be large or run the other way;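 note: the enzyme is Sfp with the accession as filed and its product quenches rhodamine fluorescence; potency is the fitted concentration of half-maximal effect; 0% = enzyme reaction without inhibitor and -100% = no enzyme wells; top concentration of the series not given in the record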
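Reaction rates are the 30-min fluorescence difference (ex 525, em 598 nm) in wells containing 15 nM Sfp, 5 uM rhodamine-CoA and 12.5 uM BHQ-2-YbbR at pH 7.6 with 10 mM MgCl2.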
PINK1 modulator: modulators of PINK1 expression | PINK1 immunofluorescence, high-content cytometry, 24 h | Potency, µM (highest dose often 76.6 µM), without a hit: at the top dose activation (PINK1 increase), most hits filed as activators | hit rate 0.2% among 410,000; active = well fitted activation curve with a large enough effect; inconclusive = small, poorly fitted or top-dose-only effect; inactive = flat fitted curve, though single readings scatter; cell line not stated here;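 note: potency is the fitted concentration of half-maximal effect; % of control where 0% means no effect; nearly all actives have a fitted effect of over 65% in size; a mitochondrial uncoupler was the plate control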
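PINK1 protein, normally rapidly degraded, was detected by immunofluorescence after 24 hour compound treatment of a stable cell line. Titration data (5 concentrations) came from laser-scanning cytometry, with CCCP-treated wells as controls.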
Menin MLL FP FL: inhibitors of human menin-MLL interaction, wild-type MLL peptide | FP activity change, % at 61.4 µM | Fluorescence polarization, fluorescein-MLL peptide displacement from menin | 290,000 tested, under 10 active; inconclusive = falling polarisation curve, or a change in total fluorescence; inactive = total fluorescence flat and polarisation flat or rising; no compound was filed as active; the % refers to the polarisation; negative = inhibition;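 note: % of control where 0% means no effect; inhibitors lower the polarisation; unlabelled MLL peptide was the positive control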
ClpP mod: qHTS Assay for Activators of ClpP | ATP-dependent Clp protease proteolytic subunit (Bacillus subtilis (strain 168)), P80244 | purified B. subtilis ClpP, FRET peptide cleavage, 20 min | Potency, µM (titrated, usually from 57.5 µM), for the others: at the highest dose activity change, negative = active | hit rate 1.9% among 340,000; active = well fitted falling curve with a large enough effect; inconclusive = small, poorly fitted or top-dose-only effect; inactive = no such curve, though single readings can be large or run the other way; note: potency is the fitted concentration of half-maximal effect; the source files actives as falling curves though it sought activators and does not explain the sign; nearly all actives have a fitted effect of over 65% in size; many hits overshoot -100%
Target sequence (P80244 whole entry, looked up): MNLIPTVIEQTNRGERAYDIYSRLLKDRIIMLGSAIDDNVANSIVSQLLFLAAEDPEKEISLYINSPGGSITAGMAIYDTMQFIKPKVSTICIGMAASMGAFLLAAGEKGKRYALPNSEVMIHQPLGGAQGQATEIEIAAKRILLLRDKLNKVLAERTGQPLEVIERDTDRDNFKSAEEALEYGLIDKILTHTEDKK
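Buffer: 100 mM Tris/HCl pH8, 100 mM KCl, 0.05% low protease BSA, 2.5% glycerol, 0.01% Tween-20. ClpP 10 microg/mL final; 20 min RT; delta FRET normalized to ADEP and DMSO controls.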
TRPML1 agonist: human mucolipin-1 channel agonism; TRPML1-expressing cells, Ca2+ dye fluorescence, FDSS; host cell line not named in the record; reference of the full effect not given here; activation, % (concentration not given with the values); hit rate 0.12% among 410,000; in the data active = activation above about 50%; inconclusive = about 30% to 50%; inactive = below about 30%; note: 0% is about no effect; the text of the record puts the active cut at 80%
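Tetracycline-induced TRPML1-DL cells are seeded and incubated overnight before loading with a no-wash Ca2+ dye and quencher. Agonist activity is taken from the 110 s fluorescence read following compound pin-transfer on an FDSS, before EC80 54-4 challenge.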
An asterisk follows results filed as active; ? = inconclusive; . = not tested or not shown; [ ] = dose if it differs, or a comment.

canonical_smiles	Sfp inh	TRPML1 agonist	ClpP mod	Menin MLL FP FL	TRPV1 PAM	TRPML1 inh	PINK1 modulator
CNC(=O)c1cc2c(=O)n3cc(C)ccc3nc2n(Cc2ccco2)c1=N	16%	.	.	3.5	-3	.	.
CC(=O)N1N=C(c2ccc(Cl)cc2)CC1c1ccc([N+](=O)[O-])cc1 (stereo not drawn)	-9%	0.8	.	0.7	-12	-17	0.2%
CCOC(=O)C1CCCN(C(=O)c2cccs2)CC1 (stereo not drawn)	.	-0.6	0.5%	.	.	.	2.5%
CCC(C)(C)NC(=O)CN(Cc1ccco1)C(=O)CCC(=O)Nc1nccs1	9%	-0.7	.	4.9	7	11	2.0%
C=CCN1C(=S)CC(c2ccccc2)=Nc2ccccc21	-3%	2.1	1.2%	3.5	7	9	11%
CCOC(=O)C1CCN(C(=O)c2ccc3c(c2)sc2nc(-c4ccccc4)cn23)CC1	.	0.4	?	.	.	29	10%
CC(NC(=O)C1c2ccccc2Oc2ccccc21)C1CCCO1 (stereo not drawn)	25%	-0.7	.	-3.7	-6	3	-1.3%
CN1CCN(C(=O)c2cc(Oc3c(F)c(F)c(F)c(F)c3F)cc(C(=O)N3CCN(C)CC3)c2)CC1	6%	-0.5	.	-5.4	-1	8	0.2%
CCOc1ccccc1NC(=O)C(Sc1nnnn1C)c1ccccc1 (stereo not drawn)	7%	-0.2	0.6%	-0.7	-11	-3	4.0%
Cc1c(O)c2c(=O)n(-c3ccccc3)c(-c3ccccc3)cc2oc1=O	11%	0.0	0.5%	4.3	3	-20	3.3%
O=C(CSc1ccccc1)Nc1cc(S(=O)(=O)N2CCOCC2)ccc1N1CCOCC1	9%	0.9	-0.6%	-8.1	-9	6	-0.8%
CCOC(=O)C1=C(COc2ccccc2)NC(=O)NC1c1cccc([N+](=O)[O-])c1 (stereo not drawn)	9%	0.6	0.0%	1.5	17	-8	-0.5%
Cc1c(Cl)cccc1NC(=S)N/N=C/c1ccccc1Cl	-11%	1.3	.	0.3	2	-7	6.4%
CCOC(=O)Oc1ccc2oc(C)c(C(=O)OCCOC)c2c1	2%	0.5	3.5%	-1.9	-6	-5	0.7%
Cc1ccc(Nc2nc(-c3c(C)n(C)n(-c4ccccc4)c3=O)c(C)s2)cc1	-2%	2.5	-4.1%	-0.7	-3	-8	-1.7%
CCOC(=O)/C(C#N)=C1/CCCCCN1C	-1%	1.0	0.5%	1.5	5	?	-2.0%
Cc1cc(O)c(C(=O)c2cnc3c(c2)COc2ccccc2-3)cc1Cl	.	2.8	13%	.	.	-5	0.1%
CN(CCOc1ccc(Cl)cc1)C(=O)c1ccccc1SCC(=O)N1CCCC1	.	0.0	-1.7%	.	0	-2	0.8%
COc1ccc(-c2coc3cc(OC4OC(CO)C(O)C(O)C4O)cc(O)c3c2=O)cc1 (stereo not drawn)	0%	1.2	-1.2%	1.4	10	9	1.7%
COc1ccccc1CNC(=O)c1ccc(CSc2nc3ccncc3n2Cc2ccccc2C)cc1	.	2.0	-25%	.	.	-2	-0.3%
COc1ccc(NC(=O)Cn2c(CCC(=O)O)ccc2-c2ccc(C)cc2)cc1	10%	1.6	-11%	2.8	-8	-8	-0.7%
CCNc1nc(C#N)nc(Nc2ccccc2)n1	.	-0.7	-2.2%	.	.	.	-0.6%
Cc1ccc(C(=O)Nc2ccncc2)cc1S(=O)(=O)N1CCOCC1	14%	0.5	-2.5%	.	-26	-6	6.8%
CCCC(=O)N1CC(=O)Nc2ccc(F)cc2C1c1ccccc1 (stereo not drawn)	22%	0.3	-1.6%	-7.4	0	11	0.9%
COc1cc2sc3cc(NCC[C@@H]4CCCN4C)ccc3c(=O)c2cc1OC	.	-0.4	?	.	.	-6	-0.9%

Overlap with the part before: 2 compounds; new compounds follow.
canonical_smiles	Sfp inh	TRPML1 agonist	ClpP mod	Menin MLL FP FL	TRPV1 PAM	TRPML1 inh	PINK1 modulator
CCCC(=O)N1CC(=O)Nc2ccc(F)cc2C1c1ccccc1 (stereo not drawn)	22%	0.3	-1.6%	-7.4	0	11	0.9%
COc1cc2sc3cc(NCC[C@@H]4CCCN4C)ccc3c(=O)c2cc1OC	.	-0.4	?	.	.	-6	-0.9%
COc1cc(C2NC(=O)CCC2[N+](=O)[O-])c(OC)cc1Br (stereo not drawn)	18%	0.9	-0.4%	2.9	20	-11	-1.2%
COc1ccc(NC(=O)C2CCN(C(=O)c3sc4nc[nH]c(=O)c4c3C)CC2)c(OC)c1	.	-0.8	-3.3%	.	.	5	2.0%
COc1ccnc(Oc2ccccc2)c1C(N)=O	7%	-0.3	.	1.2	15	0	0.6%
CCOC(=O)c1scc(-c2ccccc2)c1S(=O)(=O)Nc1ccccc1OC	.	0.5	-0.9%	.	.	-2	0.2%
CN(C)/C=C/C(=O)c1cnc(-c2cccc(Cl)c2)s1	-6%	-0.1	2.6%	2.2	8	31	2.3%
CC(=O)c1ccc(NC(=O)Cn2c(=O)nc(-c3ccccc3)c3cc(Cl)ccc32)cc1	.	3.0	-3.5%	.	.	-16	-0.7%
Nn1c(SCc2cccc(F)c2)nnc1-c1cccnc1	22%	0.1	.	1.8	10	-5	-1.1%
Clc1ccc(OCc2nc(-c3ccncc3)no2)c(Br)c1	-11%	0.5	1.0%	-0.4	-6	53	0.8%
COc1cc(NC(=O)c2ccno2)cc(C(=O)Nc2cccc(C(F)(F)F)c2)c1	3%	0.5	0.1%	2.5	23	-4	0.6%
O=C(COC(=O)CN1C(=O)c2ccccc2C1=O)Nc1ccccc1C(F)(F)F	.	-1.0	0.6%	.	.	-13	1.7%
Nc1ncnc2c1ncn2[C@@H]1O[C@H](C(=O)Nc2ccc(Oc3ccccc3)nc2)[C@@H](O)[C@H]1O	.	0.7	-4.2%	.	.	9	0.9%
COc1cc(CNC(=O)OC2CC3CC2[C@H]2CCCCN2C3=O)cc(OC)c1 (stereo partly drawn)	.	-0.6	1.1%	.	.	.	0.2%
Nn1c(Nc2ccccc2)nc2ccccc2c1=O	-20%	-0.7	-1.9%	3.9	1	-6	0.2%
CN(C)C(=O)c1ccc(NC(=O)c2cccc(S(=O)(=O)N3CCCCCC3)c2)cc1	.	-0.8	3.8%	.	-6	6	13%
O=[N+]([O-])c1cccc(/C=N\N2CCN(Cc3ccccc3Cl)CC2)c1	-7%	-0.3	-1.8%	0.6	8	?	4.3%
O=C(NCCNC(=O)c1cc(Cl)ccc1Cl)c1ccco1	2%	-0.7	.	0.5	0	-12	-1.0%
CCC1(CC)NC(=O)N(CC(=O)OC(C)C(=O)Nc2cc([N+](=O)[O-])ccc2OC)C1=O (stereo not drawn)	-3%	0.2	-1.0%	-1.5	?	4	0.4%
COc1cc(OC)c(-c2sc(Nc3ccccc3)n[n+]2-c2ccc(F)cc2)cc1OC	11%	-0.1	-9.6%	1.5	21	-12	0.0%
COC(=O)c1cc(OC)c(OC)cc1NC(=O)c1c(-c2ccccc2Cl)noc1C	-1%	-0.2	?	1.3	-13	0	?
CC1=NOC(=O)/C1=C/c1ccc(-c2ccc(Cl)cc2)o1	32µM*	.	.	6.1	-1	.	.
CCCCCCCCn1cc(C(C)=O)c(=O)[nH]c1=O	13%	-0.6	6.4%	-3.3	21	-14	-1.4%
C#CCN(C[C@H]1[C@H](OC(=O)NCc2ccc(OC)c(OC)c2)[C@H](OC(=O)NCc2ccc(OC)c(OC)c2)C[C@H]2C(=O)N(c3ccccc3)C(=O)[C@@H]12)S(=O)(=O)c1ccc(C)cc1	.	0.7	3.8%	.	.	0	2.5%
COCC(=O)NCc1ccc2c(c1)OCO2	-1%	0.3	-1.9%	3.4	4	-14	0.3%
CCOc1ccc(CNC(=O)Cn2nc(C)c3sc4ccccc4c3c2=O)cc1	.	-0.4	-4.5%	.	.	9	1.1%
CN(CCc1ccccn1)C(=O)CC1C(=O)NCCN1Cc1ccccc1C(F)(F)F (stereo not drawn)	-13%	-0.9	-9.6%	-3.1	9	2	4.7%

Going on with the list:
canonical_smiles	Sfp inh	TRPML1 agonist	ClpP mod	Menin MLL FP FL	TRPV1 PAM	TRPML1 inh	PINK1 modulator
CC(=O)NC(CC(=O)c1ccc([N+](=O)[O-])cc1)C(Cl)(Cl)Cl (stereo not drawn)	?	0.9	-1.6%	-1.5	4	-13	-0.2%
O=C(NC1CCCCC1)c1ccc(Cn2c(SCc3cccc(F)c3)nc3cccnc32)cc1	.	2.4	5.1%	.	.	-16	2.3%
COc1cc(CN2CC(=O)N(c3ccc(C)c(C)c3)C2=S)cc(OC)c1OC	-2%	0.9	-3.2%	2.5	3	32	?
CNc1ccc(NC(C)=O)cc1[N+](=O)[O-]	19%	0.9	-1.9%	5.9	-3	17	1.6%
CC(C)(CNC(=O)c1cc(-c2ccc(Cl)s2)nc2ccccc12)N1CCOCC1	.	0.1	.	.	9	-8	2.6%
COc1ccc(N(C)C(=O)c2cn(CC(C)C)c(=O)c3cc(OC)c(OC)cc23)cc1	12%	-0.2	.	1.5	20	-1	2.1%
COc1ccc(Nc2ncnc3ccc([N+](=O)[O-])cc23)c(OC)c1	16%	-1.5	-0.1%	-0.4	-10	4	5.9%
CCOC(=O)CSc1nc2cc(C(=O)NCc3ccco3)ccc2c(=O)n1C1CCCCC1	1%	1.2	-9.1%	4.1	1	13	4.0%[38.3 µM]
CS(=O)(=O)c1ccc(Cl)c(NC(=O)c2cccc(-n3cnnn3)c2)c1	.	-0.2	1.4%	.	5	-9	-1.7%
CCN(CC)S(=O)(=O)c1ccc(C(=O)Nc2ccc(OCC(=O)N3CCOCC3)cc2)cc1	18%	-0.2	0.5%	0.6	18	-5	0.6%
Cc1nc2cnc(N(C)C)nc2n(CCC#N)c1=O	32%[activator]	.	.	-6.7	.	.	-0.7%
CCN1CCCC1CNC(=O)c1ccc2c(c1)N(Cc1cccc(Cl)c1)C(=O)c1ccccc1S2(=O)=O (stereo not drawn)	-15%	1.6	-0.1%	.	-6	-7	4.5%
O=C(O)c1ccc2c(=O)n3c(nc2c1)/C(=C/c1ccc(F)cc1)CC3	3%	-0.4	.	-24	-12	4	1.5%
Cc1ccc(C)n1CCN1CCN(CC(=O)Nc2cc(C(F)(F)F)ccc2Cl)CC1	9%	.	.	2.7	6	.	.
